VDR inhibitor = Inhibitors of the vitamin D receptor (VDR): qHTS. Vitamin D3 receptor (Homo sapiens), P11473. VDR-SRC2-3 peptide fluorescence polarization, 2 h. Potency, µM, for the others: max response, negative = inhibition, hits mostly inhibitors. 400,000 tested, 0.93% active. AID 504847, 2011; active means well fitted inhibition curve with a large enough effect; inconclusive means small, poorly fitted or top-dose-only effect, or another doubt; inactive means no such curve, though single readings can be large or run the other way; further: series mostly up to about 120 µM
Target sequence (P11473 whole entry, looked up): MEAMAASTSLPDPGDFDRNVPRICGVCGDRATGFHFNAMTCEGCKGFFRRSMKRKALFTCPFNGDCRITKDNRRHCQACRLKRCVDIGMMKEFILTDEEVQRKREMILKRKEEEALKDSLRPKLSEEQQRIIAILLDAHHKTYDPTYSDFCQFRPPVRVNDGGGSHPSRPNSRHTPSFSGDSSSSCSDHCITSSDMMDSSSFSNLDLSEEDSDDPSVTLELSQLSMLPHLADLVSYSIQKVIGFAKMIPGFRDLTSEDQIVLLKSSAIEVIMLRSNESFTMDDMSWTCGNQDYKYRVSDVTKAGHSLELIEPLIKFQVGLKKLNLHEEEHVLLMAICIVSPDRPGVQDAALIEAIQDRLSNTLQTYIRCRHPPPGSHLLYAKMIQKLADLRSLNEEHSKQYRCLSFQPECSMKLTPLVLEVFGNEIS
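Fluorescence polarization assay of small-molecule disruption of VDR binding to coregulator peptide SRC2-3. Compounds and controls pin-transferred, then read after 2 h incubation at ambient room temperature.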
* = called active by the depositor; ? = inconclusive; & = joins results of further samples; [ ] = dose if it differs, or a comment. On the % scale 0 is the no-effect control and ±100 the full control effect; potency means the concentration at half of the fitted maximal effect.

structure,VDR inhibitor
O=C(CNC1=NCCC1)c1ccc2c(c1)OCCO2,-5%
CC(=O)NC[C@@H]1CN(c2ccc(N3CCOCC3)c(F)c2)C(=O)O1,1%
O=C(N/N=C/c1ccco1)c1cc(-c2ccc(Cl)s2)[nH]n1,-10%
COc1cc(C)cc(C(=O)C=Cc2ccccc2)c1O,?
CCCC(=O)N(Cc1cc(=O)[nH]c2ccccc12)c1ccccc1C,-11%
CCOc1ccc(NC(=S)N(CCOC)C2CCN(C(C)C)CC2)cc1,-7%
O=C(CN1CC[C@@]2(O)CCCC[C@H]2[C@@H]1c1ccc(F)cc1)NCc1ccco1,-13%
Cc1cccc(OCc2nc(C#N)c(NCc3ccc4c(c3)OCO4)o2)c1,5%
Cc1ccc(C)c(-n2nnnc2SCC(=O)Nc2c(C)n(C)n(-c3ccccc3)c2=O)c1,-3%
Cc1ccc(C)c(NC(=S)NCc2ccc3[nH]c4c(c3c2)CCCC4)c1,-11%
N=C1C(=O)OCC1c1ccccc1NC(=O)CN1CCOCC1 (stereo unspecified),-16%
CCCCn1cc(S(=O)(=O)c2ccc(CC)cc2)c(=O)c2cc(F)c(N3CCCC(C)C3)cc21 (stereo unspecified),8%
CCCCN(C)CCCNC(=O)c1cn(C)c2ccc(S(=O)(=O)N(C)C3CCCCC3)cc2c1=O,?
CCCNC(=O)CN1C(=O)NC(c2ccccc2)(c2ccccc2)C1=O,-2%
O=c1cc(-c2ccccc2)[nH]n1-c1nc2ccccc2[nH]1,-21%
CCOc1ccc(Nc2nc3c(c(=O)[nH]2)CCC3)cc1,8%
C=CCOc1ccc(C=Nc2ccc(Cl)cc2)c(O)c1,-5%
Cc1ccc(-c2noc(C3CCCN(C(=O)c4cccc(F)c4)C3)n2)cc1 (stereo unspecified),-12%
CC1CN(C(=O)COC(=O)/C=C/c2ccc(C(F)(F)F)cc2)CC(C)O1 (stereo unspecified),1%
CC(C)(C)NC(=O)c1nc2nc(-c3ccccc3)cc(C(F)(F)F)n2n1,-8%
Cc1cccc(N2CN(Cc3ccco3)CNC2=S)c1C,13%
O=C(Nc1nnc(C2=COCCO2)o1)c1cccc(F)c1,27%
CC(C)Cn1c(=O)c2c(nc3n2CCCN3CCc2ccccc2)n(C)c1=O,-10%
CCOc1ccc(S(=O)(=O)N2CCC(C(=O)NCc3ccccc3CN3CCCC3)CC2)cc1,6%
Brc1cccc(-c2nnc3sc(CN4CCC5(CC4)OCCO5)cn23)c1,-13%
Cc1nn(CC(=O)NC2C(=O)N3C(C(=O)O)=C(CSc4nnnn4C)CSC23)cc1Br (stereo unspecified),1%
Cc1cc(C(=O)CN2C(=O)c3cccc(N)c3C2=O)c(C)n1Cc1cccs1,-26%
O=C(CCc1nc2ccccc2c(=O)[nH]1)Nc1ccc(F)cc1,-7%
CC1=C(C(=O)Nc2ccccc2)C(c2ccc(C(C)C)cc2)N2C(=O)CSC2=N1 (stereo unspecified),-3%
CC(C)CNC(=S)NC(=O)c1ccc(Cl)cc1,13%

Gathered by group: the entries above containing an aryl thioether with sulfur outside any ring.
structure,VDR inhibitor
Cc1ccc(C)c(-n2nnnc2SCC(=O)Nc2c(C)n(C)n(-c3ccccc3)c2=O)c1,-3%
Cc1nn(CC(=O)NC2C(=O)N3C(C(=O)O)=C(CSc4nnnn4C)CSC23)cc1Br (stereo unspecified),1%

Reprinted from the entries so far, 3 compounds:
structure,VDR inhibitor
CC(=O)NC[C@@H]1CN(c2ccc(N3CCOCC3)c(F)c2)C(=O)O1,1%
O=C(N/N=C/c1ccco1)c1cc(-c2ccc(Cl)s2)[nH]n1,-10%
COc1cc(C)cc(C(=O)C=Cc2ccccc2)c1O,?

Additional entries.
structure,VDR inhibitor
CC(C)Cc1nnc(NC(=O)CCC(=O)N2CCN(c3ccccc3F)CC2)s1,-8%
CCCS(=O)(=O)c1c(S(=O)(=O)CCC)c2ccc(C(N)=O)cn2c1C(=O)c1ccc(F)cc1,1%
Cc1noc(C)c1C(=O)Nc1ccc(F)cc1F,13%
Cc1cc(=O)oc2c(C)c(OCC(=O)NCCc3ccc(S(N)(=O)=O)cc3)ccc12,-8%
O=C(NCc1nc2ccccc2[nH]1)C1=C[C@H](C2CCCCC2)C[C@H](OCc2ccc(CO)cc2)O1,-6%
NC(=O)COC(=O)c1ccc(Cl)c(S(=O)(=O)N2CCCCCC2)c1,-14%
Clc1cccc(-c2ccc(/C=N/n3cnnc3)o2)c1,-16%
CC(C(=O)NCCSCc1cccc(Cl)c1)N(c1ccccc1)S(C)(=O)=O (stereo unspecified),-2%&1%
CN1CCC(=NNC(=O)C(=O)NCc2ccccc2)CC1,0%
CCN(CC)C(=O)Cc1c(O)c2ccccc2[nH]c1=O,-8%
CCCSc1nc2sc3c(c2c(=O)n1-c1ccc(C)cc1)CCCC3,11%
CO/N=C(/C(=O)N[C@@H]1C(=O)N2C(C(=O)O)=C(CSc3nc(C)c(CC(=O)O)s3)CS[C@H]12)c1csc(N)n1,35µM*
FC(F)(F)c1ccc(Oc2ccc3ccccc3c2Br)nc1,-3%
CC1(C)C(N(O)C(=O)Nc2ccccc2)N(c2cccc(Cl)c2)C(=O)N1O (stereo unspecified),-4%
COc1ccc(C2=CC(=O)CCC2)cc1,-13%
CCOCc1nnc(NC(=O)COc2ccc3c(c2)OCO3)s1,-13%
O=C(NNC(=O)c1ccncc1)Nc1ccc(Cl)cc1,13%
CCCCOc1ccc(C(=O)NCC(=O)N2CCN(C(=O)c3ccco3)CC2)cc1,2%
COCCn1c(CN2CCC(Cc3ccccc3)CC2)nc2c1c(=O)n(C)c(=O)n2C,2%
O=C(COC(=O)CNC(=O)c1ccccc1F)Nc1ccc2c(c1)OCO2,-18%
Cc1ccccc1CNC(=O)c1cc2ccccc2o1,-17%
Cc1ccccc1N1CC(C(=O)Nc2ccc3c(c2)OCO3)CC1=O (stereo unspecified),-2%
Cc1ccc(-c2cc(-c3ccco3)c3c(N)c(C(=O)NN)oc3n2)cc1,-12%
C=CCc1cc(OC)ccc1OCCN1CC(C)OC(C)C1 (stereo unspecified),0%
COc1cccc(OC)c1C(=O)NC(=S)Nc1ccc2c(c1)C(=O)N(C)C2=O,1%
CCn1cc(C(=O)NCCOC)c(=O)c2ccc(C)nc21,3%
O=C(Nc1ccc(F)cc1)Nc1ccc(Cl)cn1,3%
CCc1ccc(CNC(=O)CCCN2C(=O)CCn3nc(-c4cccn4C)cc32)cc1,20%
COc1cccc(NC(=S)N(CCCN2CCOCC2)C(C)c2cc3ccccc3o2)c1 (stereo unspecified),?
Cc1noc2ncnc(Sc3ccccc3Cl)c12,-29%

(listing goes on)
structure,VDR inhibitor
Cc1cc(C(=O)NC2CCC(O)CC2)c(C)o1 (stereo unspecified),3%
CCOC(=O)C1=NNC(C(=O)OCC)C1C(=O)OCC (stereo unspecified),3%
Nc1nnnn1/N=C/c1cc(Cl)cc(Cl)c1O,-19%
O=C(Cn1c(-c2cscn2)nc2ccccc21)Nc1ccc2ccccc2c1,-9%
COc1cccc(C2CC(=O)N3CN(c4cccc(Cl)c4C)CSC3=C2C#N)c1OC (stereo unspecified),22µM*
COc1cccc(-c2c(-c3cc(OC)cc(OC)c3)n(C)c3ccc(-c4ccc5[nH]ccc5c4)cc23)c1,1%
Cc1cc(C)cc(NC(=O)C2CCCN(c3nc(C)cc(C)n3)C2)c1 (stereo unspecified),9%
Cc1ccc(CCNC(=O)c2cc3sccc3n2Cc2ccc(F)cc2)cc1,-10%
CC1(C)CC(=O)c2sc(NC(=O)C3COc4ccccc4O3)nc2C1 (stereo unspecified),-4%
Cc1oc2c(CN3CCOCC3)c(O)ccc2c(=O)c1-c1ccccc1,18%
O=C(Cn1cc(C(F)(F)F)ccc1=O)Nc1ccc2c(c1)OCCO2,-9%
COc1ccccc1-n1c(C)nc2cc(C(=O)NCCN3CCOCC3)ccc21,-8%
Cc1ccc(NC(=S)NC(=O)c2ccc(Br)o2)c(C)c1,0%
CCOc1ccccc1CN1CCN(Cc2ccc(C)o2)C(CCO)C1 (stereo unspecified),-12%
CCN(CC)C(=O)CN(C#N)c1nc(Cl)nc(N(C)C)n1,-4%
CCn1cc(C(=O)N2CCN(c3cc(Cl)ccc3C)CC2)c(=O)c2cc(S(=O)(=O)N3CCOCC3)ccc21,-6%
CCN(CC)C(=O)C(=O)N/N=C/c1ccc(F)cc1,-1%
CC(C)CCN1CCN(Cc2coc3ccccc3c2=O)CC1CCO (stereo unspecified),-6%
COc1cc(CN2CCNC(=O)C2CC(=O)NC2CCCCC2)cc(OC)c1 (stereo unspecified),8%
NS(=O)(=O)c1ccc(CCNC(=O)c2ccncc2)cc1,5%
COC(=O)C1=C(N)Oc2cc(C)[nH]c(=O)c2C1c1ccc(Cl)cc1 (stereo unspecified),?
COc1cccc2c1C(=O)CC(c1ccccc1)O2 (stereo unspecified),-10%
CC(C)(C)NC(=O)c1cccc(NC(=O)Cc2cccs2)c1,-3%
Cc1cccc(NC(=O)C(=O)NCCc2csc(-c3ccc(C(F)(F)F)cc3)n2)c1C,-6%
COc1ccc(N2CCN(C(=O)c3ccccc3NS(=O)(=O)c3ccc(C)cc3)CC2)cc1,-11%
NC(=O)NCCc1ccccc1,4%
CC(=O)Nc1ccc(S(=O)(=O)N(C)CC(=O)N/N=C/c2ccncc2)cc1,15%
CC(=O)Oc1c(C)c(OC(C)=O)c2c(c1C(C)=O)OC1CC(=O)C(C(C)=O)=C(O)C21C (stereo unspecified),-16%
CC1CN(C(=O)c2ccc(NS(=O)(=O)c3ccc(F)cc3)cc2)CC(C)O1 (stereo unspecified),-7%
COc1c(F)cc2[nH]c3c(c2c1F)CCNC3=O,2%

Next compounds follow:
structure,VDR inhibitor
O=C(CCc1ccc(Oc2cc([N+](=O)[O-])cc([N+](=O)[O-])c2)cc1)N1CCCCCC1,?
CC(C)(C)OC(=O)[C@H](Cc1ccccc1)NC(=O)c1[nH]cnc1C(=O)Nc1cccc(Cl)c1,-14%
CCOc1ccc(CN(C)CC(=O)Nc2ccc(N3CCOCC3)cc2)cc1OC,-5%
O=C(NC(=S)Nc1cc(S(=O)(=O)N2CCOCC2)ccc1N1CCOCC1)c1ccco1,-7%
Cc1cc(-c2ccccc2)nc(N(C)NC(=O)C2CC2)c1S(C)(=O)=O,9%
COc1ccc(NC(=O)c2coc3ccccc23)cc1OC,-3%
CCn1c(C(=O)N2CCCC(C(=O)NCCCc3ccccc3)C2)cc2sccc21 (stereo unspecified),-11%
Cc1ccc2nc(-c3ccc(NC(=O)COC(=O)c4ccc(=O)[nH]c4)cc3)sc2c1,-19%
C=CC[C@@H](CC(=O)N[C@@H](CO)Cc1ccccc1)C(=O)N[C@@H](C)COC(=O)[C@@H](CC=C)Cc1ccc(F)cc1,-16%
CCOc1cccc(C2c3[nH]c4ccccc4c3CCN2C(=O)CCC2CCCC2)c1 (stereo unspecified),4%
C=C(C)Cn1c(=O)c2c(nc3n2CCN3c2ccc(CC)cc2)n(C)c1=O,-2%
O=C(C[n+]1cc(-c2ccc(F)cc2)n2c1CCC2)N1c2ccccc2Sc2ccccc21,-5%
Cc1occc1C(=O)NCc1ccco1,-2%
O=C(CCCC(=O)NN=Cc1ccc(Cl)cc1Cl)NN=Cc1ccc(Cl)cc1Cl,-2%
COc1ccc(-c2csc(Cc3nnc(N4CCOCC4)n3-c3ccccc3)n2)cc1OC,52%[activator]
CN1C(=O)NC(c2ccc(Cl)cc2)C2=C1CC(C)(C)CC2=O (stereo unspecified),-16%
O=C(Cc1c(F)cccc1Cl)Nc1ccccc1C(=O)N1CCOCC1,2%
O=C(Nc1ccncc1)Nc1cccc(Cl)c1Cl,19%
CCN(CC)C(CNS(=O)(=O)c1ccc(Cl)cc1)c1ccccc1 (stereo unspecified),-9%
CN1CCN(CCCNC(=O)CN2C(=O)COc3ccccc32)CC1,0%
COC(=O)Cc1csc(/N=C/c2c(O)n(-c3cccc(C(F)(F)F)c3)c(=O)c3ccccc23)n1,-6%
Cc1ccccc1Nc1c([N+](=O)[O-])ccc2nonc12,-18%
CC12CCC(C)(c3nc4ccccc4nc31)C2(C)C,1%
CC(=O)c1sc(NC(=O)c2ccccc2)nc1-c1ccccc1,-35%
Cc1cccc(N2CCn3c2nc2c3c(=O)n(CCCc3ccccc3)c(=O)n2C)c1,3%
O=C(Cn1c(=O)oc2cc(S(=O)(=O)N3CCCC3)ccc21)Nc1ccc(OC(F)(F)F)cc1,3%
NC(=O)COc1ccc(-n2cnnn2)cc1,4%
O=C(O)c1ccccc1O[C@@H]1O[C@H](C(=O)O)[C@@H](O)[C@H](O)[C@H]1O,5%
CC(C)C(=O)Nc1nnc(CCc2nnc(NC(=O)C(C)C)s2)s1,8%
O=Cc1cn(CCOc2ccccc2)c2ccccc12,-5%
COc1ccc(N2CCN(C(=O)c3cccc(NC(=O)c4ccco4)c3)CC2)cc1,-6%
Cc1ccc(-c2n[nH]c(=S)n2/N=C/c2c(C)[nH]n(-c3ccccc3)c2=O)cc1,-1%
O=C(CSc1n[nH]c(-c2cccnc2)n1)Nc1ccccc1,2%

A portion of the library (hit frequency here may not be typical).
